Screening data from PubChem BioAssay.
CSC inhib – cancer stem cell inhibition | cancer stem cell-like cells viability, luminescence | inhibition, % at 7.5 µM | 300,000 compounds, 1.1% hits;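 active = mean at 75% or more and at least half the replicates too; tested in HMLE shEcad cells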;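 note: 0% = median of negative and 100% = median of positive control wells; the first replicate is given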
PABP polyA inh – PABP-poly(A) binding inhibition; inhibition, % at 35 µM; AID 2014; 290,000 compounds, 1% hits; PABP-poly(A) RNA binding, fluorescence polarization;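 active = 50% or more with normal probe brightness, or confirmed in later tests; about a fifth of its hits are not listed in these tables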;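 note: calls also rest on retests at 20 µM and on dose response follow-up; controls were probe without protein and protein plus probe with vehicle; some compounds called inactive have numbers as strong as hits; many hits fall short of the cut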
Target sequence (P11940 whole entry, looked up): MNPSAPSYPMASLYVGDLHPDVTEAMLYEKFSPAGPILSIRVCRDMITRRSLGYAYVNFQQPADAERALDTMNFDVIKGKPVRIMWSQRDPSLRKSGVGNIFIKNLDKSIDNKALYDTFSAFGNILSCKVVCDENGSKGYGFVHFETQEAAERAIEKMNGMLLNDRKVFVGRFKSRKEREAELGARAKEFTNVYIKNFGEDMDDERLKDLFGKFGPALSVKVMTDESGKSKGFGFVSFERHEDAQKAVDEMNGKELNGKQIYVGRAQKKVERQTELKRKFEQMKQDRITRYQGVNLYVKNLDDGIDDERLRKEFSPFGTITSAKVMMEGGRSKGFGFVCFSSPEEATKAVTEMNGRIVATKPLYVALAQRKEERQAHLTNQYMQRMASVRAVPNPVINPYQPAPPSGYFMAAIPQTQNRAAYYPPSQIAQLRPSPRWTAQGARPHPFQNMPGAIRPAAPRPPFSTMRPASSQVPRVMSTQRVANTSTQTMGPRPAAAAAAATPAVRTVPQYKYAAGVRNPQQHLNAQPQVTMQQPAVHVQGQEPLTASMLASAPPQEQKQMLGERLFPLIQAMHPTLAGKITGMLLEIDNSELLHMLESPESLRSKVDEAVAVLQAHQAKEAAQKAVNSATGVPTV
Rce1 inh – blocks yeast Ras-converting enzyme. 290,000 compounds, 0.27% hits. AID 2563. yeast membranes, quenched prenylated peptide cleavage fluorescence. calls only. Q03530;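 active = fall in fluorescence gain of 50% or more versus controls, with final raw signal at or below 3038400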;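 note: plate controls were neutral control wells for no effect and wells lacking membranes for full effect; tested at 10 µM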
Target sequence (Q03530 whole entry, looked up): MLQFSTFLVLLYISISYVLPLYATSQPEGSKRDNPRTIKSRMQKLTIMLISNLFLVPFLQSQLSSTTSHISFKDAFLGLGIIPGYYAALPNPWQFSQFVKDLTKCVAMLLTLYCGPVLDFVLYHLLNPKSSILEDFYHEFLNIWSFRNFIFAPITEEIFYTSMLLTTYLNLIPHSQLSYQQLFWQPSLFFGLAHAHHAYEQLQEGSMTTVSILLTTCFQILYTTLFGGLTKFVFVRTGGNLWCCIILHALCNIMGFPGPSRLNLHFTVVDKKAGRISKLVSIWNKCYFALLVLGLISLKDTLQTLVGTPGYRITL
eIF4H inh – inhibitors of RNA binding by human eIF4H; Q15056; eIF4H fluorescence polarization binding assay; inhibition, % at 35 µM; 290,000 compounds, 0.94% hits; AID 2012;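 active = 50% or more with normal probe brightness, or confirmed in later tests; about a fifth of its hits are not listed in these tables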;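 note: calls also rest on retests at 20 µM and on dose response follow-up; 0% = protein and probe with vehicle and 100% = probe without protein; strong numbers were not always called active; many hits fall short of the cut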
MT1-MMP act inh – inhibitors of human MT1-MMP activation; HT1080 RFP-PRO-GFP cells, GFP/RFP ratio fluorescence, overnight; percent of plate control window, DMSO zero; 360,000 compounds, 0.061% hits; P50281; GFP/RFP ratio change, % at 20 µM;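 active = GFP/RFP ratio change of at least 30% with cell ATP level not reduced by more than half and red fluorescence within 50% of control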; note: strong numbers were not always called active
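Assay system: HT1080 cells carrying an RFP-PRO-GFP reporter | Dosing: Single dose of 20 µM compound, 1% DMSO final | Incubation: Cells overnight before dosing, compound overnight, 37 °C, 5% CO2 | Evaluation: GFP/RFP fluorescence ratio | Control set: DMSO and RFP-L50D-GFP cell wells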
UUG fidelity – yeast start codon fidelity modulation. S. cerevisiae UUG-firefly luciferase reporter, luminescence/redox ratio. activity score, % at 18.7 µM. 350,000 compounds, 0.13% hits. AID 602363;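 active = replicate mean at a twofold rise or more, about +100% in these data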;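 note: firefly luciferase made from a UUG start codon reports start codon fidelity; reporter light over untreated wells divided by growth signal over untreated wells; some hits fall short of that in this replicate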
HIV Env fusion – HIV envelope-mediated fusion inhibition; HeLa-JRFL Env/CEM21 cell fusion, luciferase; AID 651610; inhibition, % at 12.3 µM; 360,000 compounds, 1.1% hits;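 active = mean replicate inhibition score of at least 50 and every replicate individually at or above 50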;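 note: 0% = plate neutral controls and 100% = maraviroc near 300 nM; one replicate is shown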
MT1-MMP act inh RFP – also measured in MT1-MMP act inh; calls as there; RFP signal change, %; measured here: RFP expression control read;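 0 = vehicle wells; hits needed this value within 50% of zero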
* hit, by the source's call; i = inactive; nt = no result given.

No.	canonical_smiles	Rce1 inh	UUG fidelity	MT1-MMP act inh	HIV Env fusion	eIF4H inh	MT1-MMP act inh RFP	CSC inhib	PABP polyA inh
1	COCCNC(=O)C1CCN(Cc2cccc(OCc3ccccc3)c2)CC1	i	-1	5	11	12	2	-13	11
2	c1ccc2c(c1)oc1c(NCCCN3CCOCC3)ncnc12	i	-25	5	nt	0	4	-11	4
3	Cc1ccc(-n2ncc3c2CC(C)(C)CC3NC(=O)c2cc[n+]([O-])cc2)cc1 (configuration not stated)	i	-2	-2	0	-2	2	-4	-2
4	COC(=O)Cn1cnc(=O)c(C#N)c1/C=C/N(C)C	nt	7	-1	nt	7	-4	nt	7
5	CCOC(=O)c1c(NC(=S)N2CCN(C)CC2)sc2c1CCN(C(=O)OCC)C2	i	-23	2	13	-7	-20	nt	14
6	O=C(O)/C=C/C(=O)Nc1ccc(OC(F)F)cc1	i	-13	-1	-14	-4	3	-3	-9
7	O=C(N/N=C/c1cn(-c2ccccc2)nc1-c1cccnc1)c1cccnc1	i	nt	0	-12	-3	-2	-5	2
8	CCOc1ccc(NC(=S)Nc2ccccc2C2(C)CC2)cc1	i	nt	-3	-4	-6	-2	nt	-12
9	CS(=O)(=O)NCCOc1ccc(S(=O)(=O)NCCOc2ccccc2)cc1	i	nt	-4	4	-7	-3	0	-5
10	O=C(Nc1ccc(C(=O)N2CCOCC2)cc1)c1cccs1	i	-14	2	-12	-5	3	10	-4
11	COc1cc(NC(=O)CCc2nnc3ccc(N4CCC(C)CC4)nn23)cc(OC)c1	i	-17	2	2	3	3	-8	-2
12	CCOC(=O)C1CCN(C(c2cc3cc(C)cc(C)c3[nH]c2=O)c2nnnn2C2CCCCC2)CC1 (configuration not stated)	i	-19	-4	-17	nt	-7	-13	nt
13	Cc1ccc(C)c(C(=O)OCC(=O)Nc2cccc(S(=O)(=O)NC3=NCCCCC3)c2)c1	i	29	-2	-12	3	-16	-14	-6
14	CCCc1nnc(SCc2ccc(OC)cc2)n1N	i	13	5	-9	-4	1	-13	-2
15	CCC(CO)[n+]1c(C)cc(/C=C2\Sc3ccccc3N2Cc2ccccc2)cc1C (configuration not stated)	nt	4	-204	nt	-13	-24	26	-3
16	O=C(CSc1nnc(Nc2ccccc2)s1)Nc1cccnc1Cl	i	-6	1	-22	3	4	-7	4
17	C[C@H](NC(N)=O)C(=O)Nc1ccc2c(c1)OCO2	i	-9	0	-2	-1	1	-7	4
18	O=C(C1CCCN(S(=O)(=O)c2cccc3cccnc23)C1)N1CCN(c2ccc(F)cc2)CC1 (configuration not stated)	i	3	-1	2	-4	-7	7	-5
19	Cc1ccc(NC(=O)CSc2ccc(-c3cccnc3)nn2)cc1	i	-7	3	-11	4	-6	-8	4
20	O=C(COc1ccc(-c2ccccc2)cc1)Nc1cccnc1	nt	-16	3	-26	nt	-29	9	nt
21	c1ccc(-c2nc3nonc3nc2-c2ccccc2)cc1	i	-8	4	-55	6	-2	6	10
22	COc1ccc(Cl)cc1N1CC(C(=O)Nc2nccs2)CC1=O (configuration not stated)	i	2	3	nt	10	4	3	6
23	O=C(c1cc2c(s1)-c1ccccc1S(=O)(=O)C2)N1CCCC1	i	nt	1	1	-5	0	41	-5
24	Cc1nc(C)c(-c2ccc(SCc3cccc(F)c3)nn2)s1	i	-13	3	-2	2	0	35	7
25	CCOc1ccc(/C=C/C(=O)C(C(N)=O)=C2SCCS2)cc1	i	nt	-1	-24	4	-7	-3	10
26	Cc1ccc(N(CC(=O)NCc2ccccc2)C(=O)c2csnn2)c(C)c1	i	5	-1	6	-4	0	nt	-2
27	Cc1cc(N(C)C)c(C#N)c(=O)[nH]1	i	-7	2	-12	-5	4	-4	1
28	O=C(Cc1ccc([N+](=O)[O-])cc1)Nc1ccc2c(c1)OCO2	i	nt	3	6	0	-1	-10	-3
29	CC1(C)Cc2c(c(-c3ccccc3)[nH]c(=O)c2C#N)CS1	i	-11	-2	nt	3	-4	-12	5
30	Cc1csc(NC(=O)c2ccco2)c1C(=O)c1ccccc1	i	nt	7	-13	11	7	-20	-14
31	NS(=O)(=O)c1ccc(CCNC(=O)c2cccc(S(=O)(=O)N3CCc4ccccc43)c2)cc1	nt	3	-5	-15	nt	-15	nt	nt
32	CCOC(=O)N1CCN(S(=O)(=O)c2ccc(C)c([N+](=O)[O-])c2)CC1	i	nt	2	9	-1	-1	10	2
33	CCNc1nc(SCCOc2ccc(C)cc2)nc(N(C)C)n1	i	-12	-5	48	1	-8	53	6
34	CC1=Nc2cc(C(=O)N3CCCCC3)ccc2Sc2ccc(C)cc21	i	-3	4	-9	-7	-2	-5	12
35	C/C=C(\CS(=O)(=O)c1ccccc1)S(=O)(=O)c1ccccc1	i	-16	6	2	-3	13	19	14
36	CCc1nc2ccccc2c(C(=O)Oc2cccc3cccnc23)c1C	i	-11	-5	80*	-7	-2	29	-2
37	Cc1cc(-n2cnc(-c3cn(C)nc3C)n2)no1	i	-19	1	-23	-8	2	-8	-6
38	Cc1cccc(C(=O)NCC(=O)N2CCN(S(=O)(=O)c3ccc4c(c3)OCCO4)CC2)c1	nt	15	2	-36	nt	3	nt	nt
39	c1cc(Nc2cccc3nccnc23)c2nccnc2c1	i	-11	-49	-36	-4	-12	-1	-8
40	CCCCn1c(N)c(N(C)C(=O)CCCn2c(=O)oc3ccccc32)c(=O)[nH]c1=O	nt	-1	4	19	nt	6	nt	nt
41	CCOCCCNC(=S)NCCCNc1nc2c(C)c(C)ccc2cc1C#N	nt	-26	1	17	-7	0	nt	25
42	CCN(CC)NC(=S)Nc1ccccc1	i	-14	0	-23	20	5	7	12
43	O=C(CCc1ccc(S(=O)(=O)N2CCOCC2)cc1)N1CCCC1	i	-14	1	nt	2	2	-6	-3
44	CCc1ccc(N/C(=N/c2nc(C)cc(C)n2)NC(C)=O)cc1	i	-8	2	-13	-13	-4	21	32
45	Cc1cc(N)ncc1[N+](=O)[O-]	nt	-15	1	15	nt	6	nt	nt
46	Cc1c(CC(=O)NCCCO)c(=O)oc2cc3c(cc12)CCC(C)(C)O3	i	-1	-1	7	-6	1	-12	-5
47	COc1ccc(C(=O)/C=C/c2cccc(OCc3ccccc3)c2)cc1CSCC(=O)O	i	-25	2	-24	23	-2	13	10
48	CC(C)c1ccccc1NC(=O)c1ccc(CN(c2ccccc2)S(=O)(=O)c2ccccc2)cc1	i	nt	nt	nt	-6	nt	2	1
49	O=C(Nc1ncccn1)c1ccc(Cl)c([N+](=O)[O-])c1	i	-12	1	7	8	-2	-4	13
50	Cc1ccc(S(=O)(=O)CCC(=O)Nc2ccc(Br)cc2)cc1	i	-15	5	6	-11	2	26	-7
51	CN(C)CCCNc1oc(-c2ccccc2Cl)nc1S(=O)(=O)c1ccccc1	nt	4	2	7	nt	2	13	nt
52	COc1ccc(C(=O)C2CCCN(C(=O)CCc3ccccn3)C2)c(C)c1 (configuration not stated)	i	nt	1	1	-7	0	-16	2
53	COc1ccccc1/C=C1\SC(=O)N(CC(=O)NCCCn2ccnc2)C1=O	i	-15	5	6	-6	1	10	7
54	O=C(NC(=S)Nc1cccnc1Cl)c1ccc(F)cc1	i	-19	nt	-54	10	nt	-4	48
55	O=C(NNC1=C(C(=O)C(F)(F)F)CCC1)c1cccnc1	i	nt	6	13	3	10	-9	8
56	O=C(CCC(=O)OCC(F)(F)C(F)F)Nc1ccc(F)cc1F	i	-19	6	-10	-13	8	5	4
57	CCc1ccc(NC(=O)NNC(=O)CCc2ccccc2)cc1	i	-10	7	-15	-8	3	-6	2
58	COc1cccc(-n2nnc3c(=O)n(CC(=O)Nc4ccc(C)cc4)cnc32)c1	i	nt	-1	8	6	1	-7	4
59	COC(=O)c1ccc(NC(=S)NCCCN2CCCC2=O)cc1	i	-9	1	10	0	0	-9	-14
60	CCCCOCC(O)CCc1n[nH]c(=S)n1-c1ccccc1 (configuration not stated)	i	nt	0	11	-7	1	-1	6

Further results:
No.	canonical_smiles	Rce1 inh	UUG fidelity	MT1-MMP act inh	HIV Env fusion	eIF4H inh	MT1-MMP act inh RFP	CSC inhib	PABP polyA inh
61	CCCCC(=O)N(C)c1c(CC)nc2c(OCCOC)cccn12	nt	1	1	24	nt	4	nt	nt
62	COc1ccc([C@@H]2C[C@@H](c3ccccc3)Oc3cc(C)cc(C)c32)cc1	i	-18	0	40	1	-1	nt	10
63	C=CCn1c(COc2ccc(Cl)cc2)nnc1SCC(=O)N1CC(=O)Nc2ccccc21	i	1	5	14	-4	1	-8	-2
64	CCc1ccc(CN(C)C(C)C(=O)Nc2ccc(S(=O)(=O)N3CCCC3)cc2)cc1 (configuration not stated)	nt	0	-3	10	nt	-3	nt	nt
65	Cc1ccc2nc(SC(C)C(=O)N3CCCC3)[nH]c2c1 (configuration not stated)	i	1	-4	nt	-3	-4	-13	4
66	Cc1ccc(-c2nnn(CC(=O)N(c3ccccc3)C(C(=O)NC3CCCC3)c3ccco3)n2)o1 (configuration not stated)	i	7	1	-52	-7	2	-10	-10
67	Cc1csc2ncc(C(=O)NCc3ccccc3Cl)c(=O)n12	i	-6	2	5	-5	3	-12	0
68	Cc1cccc2c1-c1sc(C(=O)N3CCc4ccccc4C3)cc1CO2	i	-35	2	7	0	-4	8	11
69	C=CCC1C=CCC(CC=C)N1C(=O)c1ccccc1[N+](=O)[O-] (configuration not stated)	i	0	-1	29	-1	-2	-5	0
70	CC1(C)C(CO)=CC(=O)C2=C1SCC(=O)N2	i	-6	-5	10	1	2	-7	-2
71	COc1ccc(NS(=O)(=O)c2ccc(N3CCCC3=O)cc2)cn1	i	nt	-9	-19	-8	-17	29	-6
72	O=C1C=C(c2ccc(Cl)c(C(F)(F)F)c2)C[C@@H](c2ccc3c(c2)OCO3)C1	nt	-25	1	2	nt	5	110*	nt
73	Cc1cc2c(NC3CCCCC3)ncnc2s1	i	-20	3	18	-5	-17	-16	14
74	Cc1c(NC(=O)C(C)Oc2ncnc3ccccc23)c(=O)n(-c2ccccc2)n1C (configuration not stated)	i	-14	1	nt	-8	5	-3	-1
75	CC(C)N(Cc1nc(-c2ccccc2)no1)C(=O)CCCN1C(=O)c2ccccc2C1=O	i	-6	-1	nt	-6	2	-6	1
76	Cc1ccc(OCC(=O)Nc2ccc(N3CCOCC3)cc2)c([N+](=O)[O-])n1	nt	-15	2	19	8	2	-9	5
